GIV Gai3 FP: inhibitors of GIV peptide binding to Galpha-i3, primary screen, biochemical, fluorescence polarization, FITC-GIV GBA peptide, rat Galphai3. AID 1224905, 2016. 90 min; hits give low values; scaled: aluminum fluoride 0%, vehicle 100%. actives 0.42% (n = 210,000). percent of control (FP), % (no concentration beside the values);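 active means replicate mean at 85% of control or lower, very high polarization wells dropped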;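 further: wells of about 15 µL received 100 nL stock; the first replicate is given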
Target sequence (P08753 whole entry, looked up): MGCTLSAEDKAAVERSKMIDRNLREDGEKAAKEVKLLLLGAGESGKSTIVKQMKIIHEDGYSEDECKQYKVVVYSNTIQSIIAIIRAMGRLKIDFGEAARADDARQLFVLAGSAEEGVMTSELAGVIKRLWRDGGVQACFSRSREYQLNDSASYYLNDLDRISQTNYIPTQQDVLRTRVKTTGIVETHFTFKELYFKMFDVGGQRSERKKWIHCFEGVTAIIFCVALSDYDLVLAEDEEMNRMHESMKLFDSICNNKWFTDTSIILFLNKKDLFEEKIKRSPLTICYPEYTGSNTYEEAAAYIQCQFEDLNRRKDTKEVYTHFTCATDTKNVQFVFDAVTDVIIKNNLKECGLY
HCMV UL50-53 inh: inhibitors of HCMV UL50-UL53 interaction, biochemical, HTRF | normalized percent inhibition | inhibition, % (concentration not given with the values) | actives 0.15% (n = 190,000) | AID 1918969, 2023;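 active means both replicates at 50% or more, plus weaker picks with an unusually low signal ratio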;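 further: stock transfer was 100 nL into about 20 µL; 0% = negative control wells and 100% = wells with untagged competitor protein; inactives centre near -12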
Sa growth 42C: S. aureus growth inhibition at 42 and 30 °C, primary screen, LtaS inhibitor project, RN4220, two temperatures. OD600, 20 h, 42 °C; hits give low values. actives 0.53% (n = 170,000). AID 720641, 2013. relative growth, % (concentration not given with the values);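 active means growth at 42 °C up to 50% and 20 or more points under that at 30 °C, or under 10% at both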;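 further: 300 nL library stock went into each well; scaled to the means of positive and negative controls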
Sa growth 42C second temp: second read-out of Sa growth 42C, no call of its own (marks repeat the call); relative growth, %; measured here: growth at 30 °C;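 optical density after 20 h as mean of two plates; 100% = untreated growth and lower means inhibition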
* = called active by the depositor; . = no result given; & = joins results of further samples. Outcome played no part in choosing rows, and some 0.82% of all compounds hit somewhere here.

SMILES | GIV Gai3 FP | HCMV UL50-53 inh | Sa growth 42C | Sa growth 42C second temp
Cc1ccc(Cn2c(=O)c3ccccc3n3c(CCC(=O)O)nnc23)cc1 | 97.4 | -7.5 | 99.2 | 92.2
CCN(CC)c1ccc2cc(-c3nc4ccccc4n3C)c(=O)oc2c1 | -24.2* | -15.1 | 96.6 | 84.7
CCOC(=O)c1c(S(=O)(=O)N2CCC(C(=O)N3CCN(c4ccccc4F)CC3)CC2)c(C)n(C)c1C | 99.1&103.7 | . | 116.5 | 88.0
CCOCCCNC(=O)c1ccc(Cn2c(=O)c3cccn3c3cccnc32)cc1 | 106.4 | . | 93.6 | 96.6
CCOc1ccc2c(c1)c(=O)c(S(=O)(=O)c1ccc(F)cc1)cn2CC(=O)Nc1ccccc1C | 106.0 | -40.6 | 114.7 | 86.5
O=C(O)c1ccccc1NC(=O)N1c2ccccc2Sc2ccccc21 | 101.1 | -50.9 | 106.2 | 50.1
Cc1ccccc1-c1nc(CN2CCC(C(=O)NCc3ccc(F)cc3)CC2)c(C)o1 | 104.0 | -29.0 | 99.9 | 91.1
O=C(O)CC(CC(=O)O)c1ccc(Cl)cc1Cl | 101.1 | -5.1 | 103.2 | 81.5
CC(C)CC1=NN2C(=N)/C(=C/c3cccs3)C(=O)N=C2S1 | 98.7 | . | 108.8 | 74.6
Cn1c(SCC(=O)Nc2ccc3c(c2)OCO3)nc2c([nH]c3ccccc32)c1=O | 107.1 | 0.6 | 95.6 | 98.8
CC(=O)N1CCN(CC(=O)Nc2ccc3c(c2)OC(F)(F)O3)CC1 | . | 3.4 | 87.4 | 94.5
CCOC(=O)c1ccc(CN(Cc2ccccc2C)S(=O)(=O)c2ccc(F)c(C(=O)Nc3cccc(OC)c3)c2)cc1 | 98.9 | . | 121.3 | 88.9
COCCN(Cc1nc2ccccc2c(=O)[nH]1)C(=O)c1ccc(C)s1 | . | -8.0 | 97.8 | 99.0
CCOc1ccc(CCNC(=O)CSc2n[nH]c(-c3ccccc3)n2)cc1OCC | 103.2 | . | 69.1 | 69.0
CCCn1c(N)c(C(=O)CN2CCCc3ccccc32)c(=O)n(C)c1=O | . | -10.2 | 99.4 | 95.6
Cc1cccc(-n2c(N)cc(=O)[nH]c2=S)c1 | 101.1 | . | 106.0 | 78.8
CSc1ccccc1C(=O)N1CCSCC1 | 102.0 | -11.7 | 97.4 | 91.2
CCOc1ccc(Oc2nnc(C)c3ccccc23)cc1 | . | -43.8 | 98.4 | 97.0
O=C(Nc1ccccc1C(=O)c1ccccc1)c1cnn(-c2ccc(Br)cc2)c1 | 102.2 | -16.6 | . | .
Cn1c2ccc(F)cc2c2nnc(SCCN3CCCCC3)nc21 | 108.8 | -32.1 | 101.7 | 94.9
Nc1nc(SC/C=C/c2ccccc2)nc2sc3c(c12)CCCC3 | 94.7&95.4 | -18.1 | 67.5 | 94.0
CC(Cc1ccco1)NC(=O)c1ccc(NC(=O)C2=CSCCO2)cc1 (configuration not stated) | 100.6 | -40.9 | 115.0 | 85.9
COCCn1c(-c2ccncc2)nn(CN2CC(C)OC(C)C2)c1=S (configuration not stated) | . | -54.5 | 104.5 | 94.2
CCn1c(=O)c(SCC(=O)NC(C)C)nc2ccccc21 | 105.1 | -20.1 | . | .
O=C(c1ccccc1)C(Sc1nnc(-c2ccco2)o1)c1ccccc1 (configuration not stated) | . | 8.2 | 91.8 | 88.7
O=C(OCC1CCCO1)c1ccc2c(c1)N(Cc1cccc(F)c1)C(=O)c1ccccc1S2 (configuration not stated) | 100.0 | -11.1 | . | .
CN1/C(=C\C(=O)COC(=O)c2cccnc2)C(C)(C)c2ccccc21 | . | -28.6 | 98.2 | 86.3
Cc1cc(N2CCC(NC(=O)Nc3ccc(Br)cc3)CC2)n2ncnc2n1 | 108.7 | 10.1 | . | .
O=C1NC(=O)/C(=C/c2cccc(OC(=O)c3ccco3)c2)S1 | 104.9 | 2.8 | 93.1 | 90.3
CCOC(=O)c1cnc2ccc(C(=O)OC)cc2c1N1CC2(C)CC1CC(C)(C)C2 (configuration not stated) | 101.9 | . | 80.0 | 91.5
CSc1nnc2n(CCC(C)C)c(=O)c3sccc3n12 | 101.4 | -27.2 | . | .
Cc1ccc(C(CNC(=O)C(C)C)N2CCN(C)CC2)cc1 (configuration not stated) | 106.5 | 2.7 | 100.1 | 94.9
c1ccc(OCc2nc3c4c5c(sc4ncn3n2)CCCC5)cc1 | 101.1 | . | 105.6 | 89.8
Cn1c(Cn2cnc3ccccc32)nnc1SCC(=O)CC(=O)Nc1ccccc1 | 102.6 | -25.5 | 103.2 | 87.9
CC(C)c1ccc(NC(=O)CN2C(=O)CC(c3ccccc3Cl)=Nc3ccccc32)cc1 | 101.8 | -29.3 | . | .
CC(Cc1ccccc1)(NC(=O)CN)c1ccccc1 (configuration not stated) | . | -0.9&-56.8 | 96.1 | 94.7
N#CC(C#N)CC(=O)c1ccccc1 | 100.9 | -8.5 | . | .
COc1ccc(NC(=O)CNNc2ccc(S(N)(=O)=O)cc2)cc1 | . | -37.4 | 76.9 | 86.6
CCc1ccc2oc(C(=O)Nc3c(C)n(C)n(-c4ccccc4)c3=O)cc(=O)c2c1 | 108.1 | -30.7 | 84.4 | 88.7
O=C(CCCn1nc(-c2ccccc2)c2ccccc21)NCC1CCCO1 (configuration not stated) | 103.5&106.1 | 4.2&-25.5 | 111.2 | 69.2

Structural class, the entries above with a COOH group.
SMILES | GIV Gai3 FP | HCMV UL50-53 inh | Sa growth 42C | Sa growth 42C second temp
Cc1ccc(Cn2c(=O)c3ccccc3n3c(CCC(=O)O)nnc23)cc1 | 97.4 | -7.5 | 99.2 | 92.2
O=C(O)c1ccccc1NC(=O)N1c2ccccc2Sc2ccccc21 | 101.1 | -50.9 | 106.2 | 50.1
O=C(O)CC(CC(=O)O)c1ccc(Cl)cc1Cl | 101.1 | -5.1 | 103.2 | 81.5

(more compounds)
SMILES | GIV Gai3 FP | HCMV UL50-53 inh | Sa growth 42C | Sa growth 42C second temp
COc1ccc(NC(=O)CSc2nc3[nH]ncc3c(=O)n2-c2ccc(C)c(Cl)c2)c(OC)c1 | 99.9 | 3.7 | 103.6 | 101.1
CC(=O)N1CCCSc2ccc(S(=O)(=O)NC3CCC(C)CC3)cc21 (configuration not stated) | 100.3 | -11.5 | . | .
Nc1c(Br)cc2oc(-c3ccccc3F)nc2c1Br | . | -13.2 | 105.6 | 91.4
Cc1ccc(-n2c(C)cc(C(=O)COC(=O)c3ccco3)c2C)cc1 | . | -9.9 | 98.7 | 98.8
CNC(=O)c1c(-c2ccc(Cl)cc2)nc2n1CCS2(=O)=O | 104.4 | -2.4 | . | .
Cc1ccccc1N1C(=O)CSCC1=O | 97.7 | -3.2 | . | .
COc1cc(OC)cc(C(=O)Nc2ccccc2-c2nc3ccccc3s2)c1 | 102.8 | -41.0 | 97.3 | 86.3
COc1cc(OC)cc(C(=O)Nc2ccc3nc(Nc4cccc(C(F)(F)F)c4)cc(C)c3c2)c1 | 105.4 | . | 107.8 | 94.1
CCOC(=O)C1=C(CN(C)Cc2ccc(C)cc2)NC(=O)NC1CC (configuration not stated) | . | 3.7 | 111.5 | 98.6
CCSC1=NC2(CCN(S(C)(=O)=O)CC2)N=C1c1ccccc1 | 105.8 | 4.6 | 94.1 | 99.7

Reprinted from the part before: five compounds, then new ones.
SMILES | GIV Gai3 FP | HCMV UL50-53 inh | Sa growth 42C | Sa growth 42C second temp
Cc1ccccc1N1C(=O)CSCC1=O | 97.7 | -3.2 | . | .
COc1cc(OC)cc(C(=O)Nc2ccccc2-c2nc3ccccc3s2)c1 | 102.8 | -41.0 | 97.3 | 86.3
COc1cc(OC)cc(C(=O)Nc2ccc3nc(Nc4cccc(C(F)(F)F)c4)cc(C)c3c2)c1 | 105.4 | . | 107.8 | 94.1
CCOC(=O)C1=C(CN(C)Cc2ccc(C)cc2)NC(=O)NC1CC (configuration not stated) | . | 3.7 | 111.5 | 98.6
CCSC1=NC2(CCN(S(C)(=O)=O)CC2)N=C1c1ccccc1 | 105.8 | 4.6 | 94.1 | 99.7
O=C(OCc1ccccc1F)c1ccc2c(c1)OCCO2 | . | -18.9 | 85.8 | 82.5
CC[N+](CC)(CC)Cc1ccccc1 | . | -28.5 | 115.0 | 87.1
N#Cc1c(-n2cccc2)sc2c1CCN(c1cccc(F)n1)C2 | 109.6 | 5.0 | . | .
Cc1ccc(S(=O)(=O)Nc2c(C)ccc3nsnc23)cc1 | 100.7 | -74.8 | 98.8 | 97.3
O=C(O)c1ccccc1OC(F)F | . | -1.0 | 86.5 | 89.3
N#CC1=C(N)Oc2n[nH]c(-c3ccc(Cl)c(Cl)c3)c2C1c1ccc(O)c(O)c1 (configuration not stated) | 105.4 | -23.6 | . | .
O=C1CCn2nc(-c3ccc(Cl)cc3)cc2N1 | 99.1 | -6.2 | . | .
CCCc1nc2ccccc2n1CC(O)COc1ccc(CC)cc1 (configuration not stated) | 111.4 | -22.4 | . | .
COc1cc(C(=O)NCc2nc3ccccc3[nH]2)cc(OC)c1OC | 107.7 | -16.4 | 82.6 | 71.1
O=C(O)c1c(F)c(F)cc2ccccc12 | 102.0 | . | 128.9 | 89.2
COC(=O)c1ccccc1NC(=O)CS(=O)(=O)c1nnnn1-c1cccc2ccccc12 | 98.9 | . | 89.0 | 92.8
COc1ccc(-c2noc(-c3ccc(NC4CCCC4)c([N+](=O)[O-])c3)n2)cc1 | 102.2 | 11.6 | 99.3 | 85.6
COC(=O)c1ccc(C(=O)OC)c(NC(=O)c2cc3nc(-c4ccc(C)cc4)cc(C(F)(F)F)n3n2)c1 | 101.7 | -1.6 | 76.4 | 88.2
C=CCNC(=O)c1c(N)n(CCc2ccccc2F)c2nc3ccccc3nc12 | . | 4.9 | 95.4 | 100.6
Cc1cc(=O)[nH]c(=S)[nH]1 | . | -15.6&-18.1&-6.8 | 91.4&93.3 | 90.1&92.9
Cc1ccc(-c2cc(C(=O)N3CCCCC3)[nH]n2)cc1S(=O)(=O)N1CCC(C(N)=O)CC1 | 106.7 | 2.0 | . | .
CCc1nnc(NC(=O)CSc2nccn2Cc2ccc(F)cc2)s1 | 100.9 | . | 114.2 | 105.1
O=c1c2cccnc2n(Cc2ccccc2F)c(=O)n1C1CCCCC1 | 100.1 | -5.4 | 105.2 | 93.0
Cn1c(C(=O)N2CCN(Cc3ccccc3)CC2)cc2c(=O)n(C)c3ccccc3c21 | 100.8 | . | 105.0 | 94.6
Cc1ccc(OC(=O)CSc2nnc(-c3ccco3)n2-c2ccccc2)cc1 | 100.1 | -19.2 | 108.1 | 106.1

Entries above that bear a hit mark in GIV Gai3 FP:
mol | GIV Gai3 FP | Sa growth 42C second temp
CCN(CC)c1ccc2cc(-c3nc4ccccc4n3C)c(=O)oc2c1 | -24.2* | 84.7

Continued:
SMILES | GIV Gai3 FP | HCMV UL50-53 inh | Sa growth 42C | Sa growth 42C second temp
Cc1nc(-c2ccc(N3CCN(C(=O)CNC(=O)c4ccccc4)CC3)cc2)no1 | 105.4 | -44.5 | . | .
Cc1ccc(NC(=O)NC2CCN(C)CC2)cc1Cl | 107.6 | 13.7 | 103.1 | 100.7
CC1S/C(=C\C#N)NC1=O (configuration not stated) | . | 3.2 | 90.3 | 102.5
CSC1=NC(c2ccc(N(C)C)cc2)NN1 (configuration not stated) | 103.9 | -74.8 | 89.7 | 92.8
Cc1ccc(C(=O)Oc2ccc3c(c2)ncn3C)cc1 | . | 6.7 | 120.2 | 103.0
CCOC(=O)Cc1csc(SCC2=C(C(=O)OCC)C(C)NC(=O)N2)n1 (configuration not stated) | . | -3.9 | 86.5 | 94.1
COc1ccc(N2C(=O)CCC(C(=O)NC3=NCCS3)C2c2ccccc2)cc1 (configuration not stated) | . | -11.8 | 93.7 | 88.4
CC(=O)Nc1ccc(Oc2ccc(S(=O)(=O)N3CCCC3)cn2)cc1 | . | -3.7 | 92.0 | 90.2
O=C(CCCN1C(=O)c2cccnc2Sc2ccccc21)NC1CCCC1 | 109.2 | -40.0 | 86.6 | 82.7
COc1ccc(NC(=O)CN2CCN(CC(=O)Nc3ccccc3F)CC2)cc1OC | 104.0 | . | 122.4 | 86.4
Cn1cnc(S(=O)(=O)N2CCN(c3ccc(F)cc3)CC2)c1 | 101.2 | -13.8 | 107.5 | 82.6
Cc1ccc(NC(=O)c2cc3c(Cl)nc4ccc(C)cc4c3s2)c(Cl)c1 | 96.9 | -25.8 | 110.2 | 91.6
COc1ccc(-c2nnc(SCC3COc4ccccc4O3)o2)cc1 (configuration not stated) | . | 2.6 | 88.5 | 97.5
Cc1cc(C(=O)O)sc1C | 98.9 | -18.6 | 76.9 | 82.6
COc1ccccc1-c1noc(CSc2ccc(-c3ccccc3F)nn2)n1 | 109.3 | 7.7 | . | .
Cc1cc(C(=O)NC2CCCC2)c2cccc(-c3ccccc3)c2n1 | 106.5 | -1.2 | . | .
Cc1nc2nc(SCC(=O)Nc3ccccc3Cl)nn2c(C)c1Cc1ccccc1 | 105.4 | . | 99.1 | 76.9
CCOc1cc(-n2cccc2)c(OCC)cc1N1CCOCC1 | 109.9 | -0.8 | 107.9 | 99.3
CC(Sc1nc2c(c(=O)[nH]1)CCCC2)C(=O)Nc1ccc(Cl)cc1 (configuration not stated) | 103.9&101.9 | -21.3&7.0 | 89.0 | 85.9
Cc1ccc(C(=O)NCC(c2cccnc2)N2CCc3ccccc3C2)cc1C (configuration not stated) | 104.8 | -9.9 | 110.8 | 96.8
